Assay outcomes: PubChem BioAssay, several laboratories
Sa RN4220 lethal: kills Staphylococcus aureus RN4220 | AID 1259311 | S. aureus RN4220 growth, OD600, 16 h | inhibition, % (concentration not given with the values) | 330,000 compounds, 0.33% hits;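 active = z-score of -3 or lower and OD600 up to 0.18 on both plates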;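 note: plate controls were untreated cells for no effect and reference antibiotic for full effect; stock transfer was 100 nL into about 80 µL; one replicate is shown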
Mtb hypoxia rep: inhibitors of hypoxia-regulated fluorescent reporter in Mycobacterium tuberculosis; AID 1159583; 300,000 compounds, 0.1% hits; M. tuberculosis hypoxia-regulated fluorescent reporter, fluorescence; fluorescence inhibition, % (concentration not given with the values);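 active = 35 to 45% if threefold the growth effect, above 45% if 1.5-fold the growth effect; inactive = the rest, general growth blockers included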;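 note: wells of about 50 µL received 100 nL stock; 0% = vehicle wells and 100% = reference inhibitor wells; whole bacteria with a GFP reporter of the hypoxia response; strong numbers were not always called active; many hits fall short of the cut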
Autofluor counter: counter-screen for toxin protease inhibitors: compound fluorescence. compound autofluorescence counterscreen, microsphere flow cytometry; active compounds read high. fluorescence intensity (no concentration beside the values). 360,000 compounds, 3.1% hits. AID 624483;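 active = at least 3 SD above the mean of all compounds, about 16000 in these data; inconclusive = too few beads counted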;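 note: 100 nL of 1 mM stock went into each well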
Sa ugtP lethal: growth inhibition of S. aureus ugtP deletion strain. S. aureus RN4220 ugtP deletion, OD600 growth, 16 h; some inactives read as strong as hits. growth inhibition, % (concentration not given with the values). 330,000 compounds, 0.54% hits. AID 1259309;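 active = z-score under -3 and OD600 up to 0.15 on both plates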;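 note: plate controls were untreated wells for no effect and antibiotic for full effect; wells of about 80 µL received 100 nL stock; the first replicate is given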
PrP 5UTR inh: suppresses PrP 5' UTR mRNA reporter expression; cell-based PrP 5' UTR mRNA reporter, plate reader; inhibition, % (concentration not given with the values); 340,000 compounds, 0.35% hits; AID 488862;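 active = every replicate at 50% or more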;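 note: 0 = median of the neutral control wells; tested in H4 reporter cells; numbers are from one replicate; inactives centre near -14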
BJeLR lethal: kills HRASV12-expressing BJeLR cells; BJeLR (HRASV12) viability, CellTiter-Glo ATP luminescence, 48 h; reference of the scale not given here; inhibition, % (concentration not given with the values); 300,000 compounds, 0.17% hits; AID 1554;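 active = replicate mean above 50%; inconclusive = above 50% but judged a plate artefact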;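 note: 50 nL library stock added to about 25 µL; numbers are from one replicate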
Mtb hypoxia rep growth: also measured in Mtb hypoxia rep; calls as there; growth inhibition, %; measured here: M. tuberculosis growth (absorbance);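 0% = vehicle and 100% = reference antibiotic; read after six days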
Active calls of the source: *; ? = inconclusive; nt = no result given.

SMILES	Sa RN4220 lethal	Mtb hypoxia rep	Mtb hypoxia rep growth	Autofluor counter	Sa ugtP lethal	PrP 5UTR inh	BJeLR lethal
CC1CN(CC(O)COC(c2ccc(Cl)cc2)c2ccc(Cl)cc2)CC(C)O1 (centres undefined)	1.7	2	3	2541	-8	-8	-6
CCn1c(-c2ccc(-c3ccccc3)cc2)c[nH]c1=S	-0.7	10	14	2990	-10	-46	-4
O=C(NCc1ccc2c(c1)OCO2)c1nnc(Cc2ccc(F)cc2)o1	1.2	2	4	5219	6	-5	6
COC(=O)Cc1c(C)nc2nc[nH]n2c1=O	-2.7	1	-5	nt	3	-29	1
CC(C)N(C(=O)c1ccc(-c2ccccc2F)cc1)C(C)C	14	16	13	4413	17	nt	2
Cc1c(NC(=O)C(C)OC(=O)C(NC(=O)c2ccco2)C(C)C)c(=O)n(-c2ccccc2)n1C (centres undefined)	9.2	6	12	22112*	-9	-6	6
CCOc1ccc(N2CC(C(=O)OC)CC2=O)cc1 (centres undefined)	-2.9	nt	nt	5828	0	-14	-3
CN1CCNC(=O)C1CC(=O)NCCc1ccccc1F (centres undefined)	-3.1	11	6	4683	3	-15	6
CCN(CC)C(=O)CSc1nc2ncc(Br)cc2[nH]1	6.1	nt	nt	4958	-5	-7	5
COc1ccc(CNC(=O)COC(=O)c2cc(-c3ccc(Cl)s3)nc3ccccc23)cc1	-12	-2	8	3101	-5	-13	-3
O=C(N1CCCC1)C12CC3CC(CC(C3)C1)C2	6.6	19	7	5942	6	-18	-9
c1csc(-c2noc(CN3CCOCC3)n2)c1	3.8	12	2	?	4	-47	-1
CCc1cccc(NC(=O)C2CCCN2S(=O)(=O)c2ccc3c(c2)n(C)c(=O)c(=O)n3C)c1 (centres undefined)	6.5	1	-7	4583	-1	-27	-8
Cc1ccc(N(CC(=O)NCc2ccco2)S(=O)(=O)c2ccccc2)cc1	6.7	15	12	4589	-10	-23	-3
COc1ccc(NC(=O)COC(=O)CCC2CCCCC2)cc1	4.2	6	7	3965	6	-12	nt
O=C(C1=C[C@@H](C2CC2)C[C@@H](OCc2ccc(CO)cc2)O1)N1CCOCC1	nt	nt	nt	3967	nt	-11	0
O=C(O)CCCCCn1c(SCC(=O)c2ccc(O)c(O)c2)nc2ccsc2c1=O	8.0	-5	-7	2578	13	-4	-3
Cc1ccc(S(=O)(=O)Nc2ccccc2CNc2c(C)n(C)n(-c3ccccc3)c2=O)cc1	10.0	-1	0	8997	17	-24	-3
CCCCc1c(C)c(C#N)c2nc3ccccc3n2c1NCCN(C)C	2.6	-6	8	3555	-5	-2	13
O=C(CN1C(=O)C2CC=CCC2C1=O)Nc1nc2ccccc2s1 (centres undefined)	-1.5	15	9	4858	4	-31	11
COc1ccc(C(=O)c2oc3nc(C)cc(C)c3c2N)cc1	2.6	nt	nt	3229	-5	-11	8
O=C(O)COc1ccc(/C=C/C(=O)c2ccc3ccccc3c2)cc1	4.7	10	2	3627	3	-31	4
Cc1ccc(OCc2n[nH]c(=S)n2-c2ccc(Cl)cc2)cc1	5.2	7	5	3305	0	-40	0
Cc1ccc(S(=O)(=O)NC2CCOC(C)(C)C2)cc1 (centres undefined)	1.9	16	9	3756	8	3	2
CCCCNc1nc(-c2ccccc2)nc(-n2ccnc2)n1	2.9	19	14	4451	-2	3	2
Further compounds follow:
SMILES	Sa RN4220 lethal	Mtb hypoxia rep	Mtb hypoxia rep growth	Autofluor counter	Sa ugtP lethal	PrP 5UTR inh	BJeLR lethal
COc1cccc(CNn2cnnc2)c1OCc1ccccc1F	0.0	0	-3	20043*	3	-13	7
Cc1ccc(NS(=O)(=O)c2ccc(C(=O)NCC(c3ccco3)N3CCCCC3)cc2)cc1 (centres undefined)	-0.7	-7	5	6560	6	-18	-3
O=C(CNC(=O)N1CC(=O)Nc2ccccc21)Nc1cccc(F)c1	0.9	0	4	6000	-2	-17	2
COc1ccc(CCNCc2cccn2C)cc1OC	4.9	7	4	2955	7	-28	1
COC(=O)c1c(C)[nH]c(C(=O)C(C)[N+]23CCN(CC2)CC3)c1C (centres undefined)	4.7	10	4	4395	16	-26	8
COCc1cc(C)nc2oc(C(=O)c3ccccc3)c(N)c12	4.2	6	2	4016	2	-94	-11
CCn1ncc(CNC(=O)CCCSc2nc(-c3ccco3)cc(C(F)(F)F)n2)c1C	-2.6	5	1	2582	9	-12	-7
NC(=O)C1CCN(C(=O)c2cc(S(=O)(=O)N3CCOCC3)ccc2Cl)CC1	5.8	10	6	4116	3	-12	-3
N#Cc1ccsc1NC(=O)CCc1ccccc1	5.3	0	1	4591	0	-47	47
CSc1ccccc1OCc1cc(C(=O)NCc2cnc(C)cn2)no1	1.5	5	6	5244	10	-24	-3
COc1ccc(OC)c(NC(=O)C(CC(=O)O)Cc2ccc(Cl)cc2)c1 (centres undefined)	7.5	3	6	3304	10	-5	0
O=C(COC(=O)/C=C/c1cccc([N+](=O)[O-])c1)Nc1ccc(Cl)cn1	6.6	7	1	?	6	nt	nt
Cc1cccc(-c2nc3c(c(=O)c4ccccc4n3C)c(=O)n2-c2ccccc2)c1	3.1	5	9	5972	10	-16	1
COc1ccc(C(=O)CSc2nnc(-c3cccnc3)n2Cc2ccco2)cc1	-0.4	2	7	10586	-19	-15	1
Cc1cccc(N2C(=O)CSC23CCCCC3)c1	3.7	-1	-1	4068	14	-9	-2
Cc1ccc(S(=O)(=O)N2CCOC2CNC(=O)C(=O)NCC(C)C)cc1 (centres undefined)	3.2	3	-6	4177	6	6	9
O=C(CN1C(=O)NC(Cc2c[nH]c3ccccc23)C1=O)NCC(F)(F)F (centres undefined)	1.0	0	2	3105	0	-18	-5
COC(=O)c1c(C)[nH]c(C(=O)NCc2ccco2)c1C	4.3	8	0	4235	6	-23	15
COc1ccc(CC(=O)OC(C)C(=O)NCc2ccc3c(c2)OCO3)cc1OC (centres undefined)	nt	nt	nt	?	nt	-17	-1
Cc1cccnc1NC(=O)c1cc2ccccc2oc1=O	1.7	4	1	4292	5	-113	-4
CCOC(=O)c1nc(NCc2ccccc2C)c2ccccc2n1	-0.1	-3	7	2575	-13	-26	-1
O=C(Nc1ccc(-c2nc3ncccc3o2)cc1)c1ccco1	5.6	1	2	3219	-7	-65	-9
COc1c(N2CCNC(C)C2)c(F)cc2c(=O)c(C(=O)O)cn(C3CC3)c12 (centres undefined)	100*	nt	nt	nt	100*	nt	5
CCOc1ccc(CN(CCO)CCO)cc1[N+](=O)[O-]	-4.4	11	18	3378	2	1	5
N#C/C(=C/c1ccc(O)cc1)C(=O)NCc1ccc(Cl)cc1	6.3	0	-7	3045	-2	-5	2
Additional structures follow:
SMILES	Sa RN4220 lethal	Mtb hypoxia rep	Mtb hypoxia rep growth	Autofluor counter	Sa ugtP lethal	PrP 5UTR inh	BJeLR lethal
Cc1cc([N+](=O)[O-])c(C)cc1-c1ccc(C=Nn2cnnc2)o1	7.4	-2	1	nt	2	nt	nt
Cc1ccc(NC(=O)CN(C)C(=O)c2cccc(S(=O)(=O)N3CCc4ccccc43)c2)cc1	4.5	3	1	3670	10	-22	nt
O=C(CS(=O)(=O)c1cccc(C(F)(F)F)c1)Nc1ccccc1Cl	3.3	10	2	10252	-4	-19	6
CCOc1ccc(N2CC(C(=O)Nc3cc(Cl)ccc3-n3cncn3)CC2=O)cc1 (centres undefined)	0.7	3	8	4675	10	-29	9
CCN1CCN(C(=O)C2CC(=O)N(c3ccc(Cl)cc3)C2)CC1 (centres undefined)	3.7	0	-17	3826	5	-4	-6
CCOc1ccc2nc(NC(=O)CN3C(=O)C4CCCCC4C3=O)sc2c1 (centres undefined)	-1.2	-9	3	nt	0	-11	-4
CCCCCCC(=O)N/N=C/c1ccco1	nt	nt	nt	2536	nt	-16	-10
CC1CN(C(C)CO)C(=O)c2cc(NC(=O)Nc3ccccc3)ccc2OC1CN(C)S(=O)(=O)c1ccc(F)cc1 (centres undefined)	4.1	1	2	nt	-1	nt	nt
CC(CCc1ccccc1)NC(=O)C1CCN(S(=O)(=O)N2CCOCC2)CC1 (centres undefined)	8.1	15	5	2163	1	-21	8
CC(C)NC(=O)NC(=O)COC(=O)c1cc(S(=O)(=O)N2CCCCC2)ccc1N1CCOCC1	1.1	-5	4	5345	-3	-3	0
COC1CCCCC1Nc1cccc(SC)c1 (centres undefined)	5.5	4	13	11343	2	-18	-4
CN(CCCCCCCCCCN(C)C(=O)Oc1cccc([N+](C)(C)C)c1)C(=O)Oc1cccc([N+](C)(C)C)c1	-1.5	nt	nt	6152	-5	-4	nt
Cc1cccc(C(=O)NC(NCc2ccco2)C(Cl)(Cl)Cl)c1 (centres undefined)	-9.6	14	16	?	-7	-4	3
O=C(C(=O)N1CCCc2ccccc21)c1c[nH]c2ccccc12	11	7	3	10043	-4	-19	-1
COc1ccc2cc3cc(C(=O)NCCc4ccc(OC)c(OC)c4)oc3nc2c1	-5.3	nt	nt	nt	17	-1	-3
CC(C)N1CCN(Cc2ccoc2)CC1CCO (centres undefined)	3.6	4	2	3468	4	-13	-7
COc1ccc(Br)c(OC)c1C(=O)NC(=O)Nc1c(F)cccc1F	3.4	7	3	3555	8	-11	2
COc1ccc(-c2noc(CN3CCCCC3)n2)cc1OC	1.9	9	0	21443*	3	-21	-5
CCOC(=O)Cc1csc(NC(NC(=O)CC)(C(F)(F)F)C(F)(F)F)n1	-0.9	nt	nt	4456	2	-14	6
COc1ccc(C2CC(c3ccc(Br)cc3)=NN2C(=O)CCC(=O)O)cc1OC (centres undefined)	nt	nt	nt	3117	nt	-1	-10
CCOC(=O)c1nc(S(C)(=O)=O)ncc1Cl	11	7	5	9459	8	-4	-8
C#CCOCCOCCOCCNc1nc(N2CCN(C(=O)C(C)n3cc(CCCN=C(N)N)nn3)CC2)nc(N2CCN(C(=O)C(C(C)CC)n3cc(CCCCN)nn3)CC2)n1 (centres undefined)	6.0	10	8	nt	3	nt	nt
[N-]=[N+]=NCC(Cc1ccccc1)N1CCN(Cc2ccccc2)CCC1=O (centres undefined)	4.3	8	0	nt	-2	nt	nt
Cc1cc(C)nc(NN=CC2=C(N3CCOCC3)/C(=C/c3ccc(Cl)cc3)CC2)n1	9.8	7	7	3823	-2	-18	nt
O=C(Cn1cc(C(F)(F)F)cc(Cl)c1=O)NCc1ccc(Cl)cc1	-2.7	7	3	3930	-5	-24	-6

Seven compounds drawn at random from the list so far, as already listed:
SMILES	Sa RN4220 lethal	Mtb hypoxia rep	Mtb hypoxia rep growth	Autofluor counter	Sa ugtP lethal	PrP 5UTR inh	BJeLR lethal
COc1ccc(-c2noc(CN3CCCCC3)n2)cc1OC	1.9	9	0	21443*	3	-21	-5
CCOC(=O)c1nc(S(C)(=O)=O)ncc1Cl	11	7	5	9459	8	-4	-8
CC(C)NC(=O)NC(=O)COC(=O)c1cc(S(=O)(=O)N2CCCCC2)ccc1N1CCOCC1	1.1	-5	4	5345	-3	-3	0
COC1CCCCC1Nc1cccc(SC)c1 (centres undefined)	5.5	4	13	11343	2	-18	-4
O=C(CS(=O)(=O)c1cccc(C(F)(F)F)c1)Nc1ccccc1Cl	3.3	10	2	10252	-4	-19	6
CCOc1ccc2nc(NC(=O)CN3C(=O)C4CCCCC4C3=O)sc2c1 (centres undefined)	-1.2	-9	3	nt	0	-11	-4
Cc1ccc(NC(=O)CN(C)C(=O)c2cccc(S(=O)(=O)N3CCc4ccccc43)c2)cc1	4.5	3	1	3670	10	-22	nt
